# E coli growth = inhibitors of Escherichia coli growth; OD600, 23 h; hits give low values; OD600 absorbance (concentration not given with the values); 0.21% of 330,000 active;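 active = OD600 absorbance below the run mean of sample wells minus 3.6 SD, in any replicate, cut at about 0.56 in these data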;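 also: stock transfer was 300 nL into about 60 µL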
# UCH37 inh = human UCH37 deubiquitinating enzyme inhibition; purified proteasome/UCH37, Ub-AMC cleavage fluorescence; inhibition, % (no concentration beside the values); 0.33% of 330,000 active; AID 588478;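 active = mean of two replicates above 20%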;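 also: 0% = compound-free wells with enzyme and 100% = wells lacking proteasome; stock transfer was 100 nL into about 20 µL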
# Target sequence (Q9Y5K5 whole entry, looked up): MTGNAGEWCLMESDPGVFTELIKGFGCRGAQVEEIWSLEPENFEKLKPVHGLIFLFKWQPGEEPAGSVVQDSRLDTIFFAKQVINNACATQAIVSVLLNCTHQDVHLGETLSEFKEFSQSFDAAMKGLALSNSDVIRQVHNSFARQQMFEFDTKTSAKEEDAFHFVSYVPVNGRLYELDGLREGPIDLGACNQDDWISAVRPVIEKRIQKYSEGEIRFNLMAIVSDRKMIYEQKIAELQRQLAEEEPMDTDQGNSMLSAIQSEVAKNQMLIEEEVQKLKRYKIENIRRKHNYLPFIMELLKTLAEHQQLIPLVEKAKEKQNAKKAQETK
#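 assay system = human UCH37 enzyme supplied as purified proteasome complex | amount = proteasome at 0.15 nM in the dispensed enzyme solution | schedule = 30 min compound-proteasome preincubation then 25 min substrate reaction, room temperature | measured by = fluorescence, ex 355 nm, em 460 nm | benchmarks = no-proteasome wells (full inhibition) and compound-free wells (no inhibition)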
# A1 inh = inhibitors of the anti-apoptotic protein A1, read as caspase activation | 0.066% of 330,000 active | AID 2462 | caspase activation, % (concentration not given with the values) | MEF A1-2A-BIM cells, Caspase-Glo 3/7 luminescence, 3 h; percent of clofoctol response, vehicle zero;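 active = over half of replicate activation scores above 10%, or exactly half above 10 with the replicate mean above 10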;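 also: wells of about 30 µL received 50 nL stock; many hits fall short of the cut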
# Beta cell apopt = blocks beta cell apoptosis; 0.8% of 300,000 active; protection from apoptosis, % (concentration not given with the values); INS-1E cytokine-induced death, ATP luminescence, 48 h; percent of positive-control rescue, neutral wells zero;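 active = all replicates at 75% or more, or half of them and the mean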;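 also: 0% = cytokine-treated negative control wells and 100% = positive control rescue; higher means more ATP so stronger rescue from cytokine killing; wells of about 40 µL received 100 nL stock; the first replicate is given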
# FGF22 binding = binders of recombinant human FGF22 by thermal shift; Q9HCT0; SYPRO orange fluorescence; percent of sucrose octasulfate shift, DMSO zero; calls only at 9.99 µM; 1.5% of 340,000 active; AID 651658;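 active = melting point raised past a set limit in the mean and every replicate; three in four hits are not shown here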
# Target sequence (Q9HCT0 whole entry, looked up): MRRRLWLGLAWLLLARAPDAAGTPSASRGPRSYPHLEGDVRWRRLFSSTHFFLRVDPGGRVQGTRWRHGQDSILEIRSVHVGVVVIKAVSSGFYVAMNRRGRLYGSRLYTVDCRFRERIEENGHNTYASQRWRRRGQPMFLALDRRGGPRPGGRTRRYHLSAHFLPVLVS
# AF4-AF9 inh = inhibitors of human MLL-AF4/AF9 interaction; P42568; AlphaScreen, biotin-AF4 peptide binding to FLAG-AF9; inhibition, % at 10 µM; 0.47% of 350,000 active;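 active = every replicate reaching a set inhibition limit, whatever the replicate mean, cut at about 25% in these data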;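 also: 0% = plate neutral control median and 100% = total signal loss; the record names both 10 and 1 µM as test concentration; the first replicate is given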
# T cruzi inh = blocks replication of Trypanosoma cruzi; T. cruzi beta-gal in NIH3T3, luminescence, 90 h; inhibition, % (concentration not given with the values); 1.4% of 300,000 active;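 active = mean inhibition across valid replicates above about 55%, limit read from the data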;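 also: signal also drops with host cell toxicity which is not excluded here; 0% = plate median of DMSO wells and 100% = zero luminescence signal; higher percent means less beta-gal luminescence so fewer parasites; stock transfer was 50 nL into about 50 µL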
# Ecoli rRNA inh = inhibits bacterial ribosomal RNA function over humanized ribosomes; E. coli WT GFP vs humanized-ribosome RFP mutants, fluorescence, 24 h; hits give low values; DMSO median 0, no signal -100; GFP signal change (wild-type ribosome), % (no concentration beside the values); 1.6% of 350,000 active; AID 720706;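 active = significant combined selectivity score with lowered wild-type GFP, culture density cut under 30%, mutant RFP and density less affected; inactive = any of these conditions unmet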; also: one replicate is shown; some compounds called inactive have numbers as strong as hits
# Ecoli rRNA inh OD600 = further read-out of Ecoli rRNA inh, marked with its call; OD600 change, %; measured here: OD600 growth;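 optical density of the mix in the first replicate; 0 = DMSO median and -100 = no signal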
# Ecoli rRNA inh RFP = recorded beside Ecoli rRNA inh, whose call it bears; RFP signal change, %; measured here: RFP humanized mutant strains;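 first replicate; 0 = DMSO median and -100 = no signal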
# The depositor's hits bear a star; i = inactive; . = no result given. The list is partial; the hit share may differ from the screen's.
# Order of results – E coli growth | Beta cell apopt | AF4-AF9 inh | UCH37 inh | FGF22 binding | A1 inh | Ecoli rRNA inh | T cruzi inh | Ecoli rRNA inh OD600 | Ecoli rRNA inh RFP
> CCC1(CC)NC(=O)N(CC(=O)OCC(=O)Nc2ncc(Cl)cc2Cl)C1=O
    0.69 | -2 | -14 | 1.5 | i | 0.4 | 2 | 2 | 3 | -1.9
> Cc1ccc(C)n1NC(=O)c1ccccc1
    0.72 | -3 | . | 1.9 | . | 0.7 | . | 7 | . | .
> Cc1cc(C)c(C(=O)c2ccc(C(=O)N(C(C)C)C(C)C)cc2)c(C)c1
    0.7 | 0 | . | 1.2 | . | 0.1 | . | 20 | . | .
> COc1ccc(C)cc1NC(=O)C(c1ccccc1)N1CCN(CC(=O)N2CCOCC2)CC1 (centres undefined)
    0.7 | . | 1.1 | 4.3 | i | . | 6 | . | 9 | -3.0
> COC(=O)c1ccc(S(=O)(=O)NCc2ccccc2)n1C
    0.7 | . | . | 6.1 | i | 0.8 | 10 | -10 | -2 | 2.7
> COc1ccc2nc(C3CCCCC3)nc(C3CCCCC3)c2c1
    0.76 | 13 | 1.5 | 3.3 | i | 0.1 | 6 | 10 | 10 | -7.5
> Cn1c(=O)[nH]c(=O)c2c1nc(N1CCCCC1)n2CC(O)CN1CCCCC1 (centres undefined)
    0.72 | -1 | . | 6.4 | . | 0.6 | . | -33 | . | .
> C=CCn1c(OCc2ccccc2)n[nH]c1=S
    0.67 | -1 | -2.6 | 0.8 | i | 1.5 | 10 | 4 | 1 | 2.7
> COc1cccc(-c2cc(C(=O)NN3CCOCC3)c3ccccc3n2)c1
    0.7 | 5 | . | 4.1 | . | 0.0 | . | 6 | . | .
> Cc1ccc2c(c1)N(C(=O)CCC(=O)N1CCOCC1)CCO2
    0.71 | 1 | -2.8 | 0.3 | i | -0.1 | 10 | -4 | 8 | -0.9
> O=C(COC(=O)Cc1ccc(Br)cc1)NCC1CCCCC1
    0.7 | -2 | -1.8 | 0.8 | . | -0.4 | -15 | -12 | -10 | 2.6
> O=C(COc1cccc2cccnc12)Nc1nccs1
    0.63 | 5 | . | 3.1 | . | -2.3 | . | -3 | . | .
> Cc1ccc(NC(=O)CCc2nnc(SCC(=O)Nc3ccccc3C)n2C)cc1Cl
    0.66 | 2 | -32 | 3.5 | . | 0.2 | 4 | -11 | 0 | -7.0
> O=C(O)CNS(=O)(=O)c1c(Cl)cccc1Cl
    0.71 | -2 | 5.8 | 6.2 | i | -1.2 | 2 | -15 | 7 | -4.0
> CC(=O)c1cc(F)c(N2CCN(C(=O)COc3ccc(F)cc3)CC2)cc1C
    0.68 | 10 | . | 1.0 | . | -0.3 | . | -10 | . | .
> CC(=O)N1CCN=C1SCc1ccc(C)cc1
    0.73 | -8 | -3.9 | 1.8 | i | -0.3 | 8 | -12 | 4 | -1.0
> CCOC(=O)c1ccc(N(C(=O)CNC(=O)c2ccco2)C(C(=O)NCC2CCCO2)c2ccc(OC)c(OC)c2)cc1 (centres undefined)
    0.62 | -3 | 0.1 | -0.2 | i | 0.8 | 3 | -3 | 4 | -0.8
> CCOC(=O)C1CCN(CCC(=O)Nc2ccc(F)cc2)CC1
    0.68 | -1 | 3.0 | 5.9 | i | 0.0 | 11 | -10 | 10 | 1.1
> CCOC(=O)c1c(-c2ccccc2)csc1NC(=O)C(C)NCc1ccco1 (centres undefined)
    0.68 | 3 | . | 1.8 | . | 0.7 | . | 23 | . | .
> O=C1C2C3C=CC(C4CC34)C2C(=O)N1/N=C/c1ccc([N+](=O)[O-])o1 (centres undefined)
    . | -15 | -0.3 | . | i | 0.7 | 17 | 20 | 7 | 0.9
> N=C1C(c2ccccc2)=C(O)CN1c1cccc(S(=O)(=O)N2CCCCC2)c1
    0.7 | 1 | 6.6 | 5.5 | i | 1.1 | 2 | 3 | 0 | -7.1
> CCNC(=O)N(CC)C[C@H]1N[C@@](Cc2ccccc2)(C(=O)OC)[C@H]2C(=O)N(C)C(=O)[C@@H]12
    0.71 | -12 | -5.7 | 4.0 | i | -0.1 | 1 | . | 10 | -0.5
> CCOC(=O)C1CCN(C(=O)C2CCN(c3nnc(-n4cccc4)s3)CC2)CC1
    0.63 | -1 | -0.7 | -2.2 | i | -0.1 | -8 | -23 | -7 | 2.3
> O=C(COC(=O)c1cccc(S(=O)(=O)N2CCOCC2)c1)c1ccccc1
    0.71 | -2 | 0.2 | 4.3 | i | 0.1 | 0 | -7 | 9 | -0.8
> CCN1C(=O)C2C(c3cccc(F)c3)NC(C)(C(=O)OC)C2C1=O (centres undefined)
    0.71 | -6 | . | 2.5 | . | -0.6 | . | -7 | . | .
> CC(=O)NCC(=O)NC1CCCc2c1cnn2-c1ccc(C(C)(C)C)cc1 (centres undefined)
    0.71 | -2 | -1.6 | 5.3 | i | 0.6 | -10 | -22 | -7 | -2.2
> CC1CC(=O)N(c2ccc(NCc3ccccc3Cl)c([N+](=O)[O-])c2)C1=O (centres undefined)
    0.69 | 0 | . | 4.7 | . | -0.1 | . | -1 | . | .
> O=C(c1cnn2c(C(F)F)cc(-c3ccccc3)nc12)N1CCc2ccccc21
    0.7 | 7 | -3.1 | 2.9 | i | 1.2 | -2 | 2 | -1 | 1.2
> COc1ccc(NS(=O)(=O)c2ccc3c(c2)NC(=O)C(C)S3)cc1 (centres undefined)
    0.66 | 10 | -1.2 | 0.1 | i | -0.1 | -28 | -9 | -26 | 6.9
> CCC(C)(NC(=O)c1ccc(=O)[nH]c1)C(=O)NC1CCCC1 (centres undefined)
    0.73 | -1 | 4.7 | 4.9 | i | 1.3 | 6 | -11 | 11 | -1.6
> CC1Cc2ccccc2N1C(=O)CSc1nc2cc3c(cc2cc1C#N)OCO3 (centres undefined)
    0.68 | 9 | . | -36 | . | 1.7 | . | . | . | .
> OCC[C@H]1C[C@@H](O)[C@H](O)[C@@]2(Cc3ccccc3O2)O1
    . | 1 | 0.1 | 0.0 | i | -0.6 | 5 | . | 6 | 2.0
> O=C(Nc1ccc(F)cc1)C1CCN(C(=O)c2ccc([N+](=O)[O-])cc2)CC1
    0.73 | -4 | -1.9 | 0.4 | . | -0.6 | -1 | 1 | 4 | 2.7
> Nc1ncnc2c1ncn2[C@@H]1O[C@H](CNCc2ccc(OCC(=O)Nc3ccccn3)cc2)[C@@H](O)[C@H]1O
    0.69 | -7 | -1.1 | 3.5 | i | 0.0 | 4 | . | 18 | 1.9
> CCN(CC)S(=O)(=O)c1ccc(C(=O)NCc2cccs2)cc1
    0.65 | 0 | . | 2.0 | . | 0.5 | . | -5 | . | .
> CC(OC(=O)/C(C#N)=C/c1ccco1)C(=O)N(C)c1ccccc1 (centres undefined)
    0.72 | -6 | 2.5 | 9.7 | i | 1.1 | 9 | . | 4 | 10
> CCOC(=O)N1CCN(C(=O)CN(Cc2ccccc2)S(=O)(=O)c2ccc(OC)c(Cl)c2)CC1
    0.73 | -10 | . | 4.1 | . | -0.1 | . | -6 | . | .
> Cc1ccc(C)n1-c1nn(S(=O)(=O)c2cccc(C(F)(F)F)c2)c2cccc(F)c12
    0.71 | . | -2.5 | -0.1 | i | 1.6 | 10 | 32 | 5 | -1.9
> Cc1[nH]c2ccccc2c1C(=O)C(=O)N1CCN(C)CC1
    0.72 | 0 | 0.5 | -0.2 | i | 0.4 | 12 | -18 | 5 | -0.1
> CC(=O)N1N=C(c2cccc(NS(C)(=O)=O)c2)CC1c1ccc2c(c1)OCO2 (centres undefined)
    0.71 | 0 | -3.0 | 1.4 | i | -0.1 | 3 | -9 | 7 | -1.6
> CCOc1cc(CNCCc2ccc(S(N)(=O)=O)cc2)ccc1OCc1ccccc1
    0.71 | 34 | . | 6.4 | . | 0.0 | . | 30 | . | .
> CCOc1cc(-c2noc(CCC(=O)NC3CCCCC3)n2)ccc1OC
    0.69 | -3 | -0.7 | 1.1 | i | -0.1 | 1 | 3 | -11 | -0.4
> O=C(Nc1cccnc1)c1ccc(Br)s1
    0.69 | 18 | . | -0.5 | . | 0.4 | . | 0 | . | .
> CC(=O)Nc1ccc(S(=O)(=O)NCCC(=O)OCCN2C(=O)c3ccccc3C2=O)cc1
    0.67 | -2 | -13 | -2.1 | i | 0.2 | 10 | . | 1 | 1.0
> CC1CCCC(C)N1CCOc1cc(N)ccc1C#N (centres undefined)
    0.69 | . | -0.6 | 0.8 | i | . | 6 | . | 7 | -4.3
> Cc1ccc(C(=O)OCC(=O)Nc2ccc(N3CCOCC3)cc2)cc1
    0.7 | . | -2.1 | 0.7 | i | . | 2 | . | 5 | -2.1
> O=C(Nc1ccc(NC(=O)c2cccs2)cc1)c1ccccc1
    0.73 | 7 | -0.6 | -5.5 | i | -2.9 | 2 | -2 | 11 | -2.5
> C=C1C(=O)O[C@@H]2[C@H]3O[C@]3(C)CC/C=C(\C)CC[C@@H]12
    . | -11 | -2.4 | . | i | 0.0 | . | . | . | .
> COc1ccc(CCNC(=O)CSC2=Nc3ccccc3C3=NC(C(C)C)C(=O)N23)cc1OC (centres undefined)
    0.71 | -4 | . | -3.0 | . | -0.4 | . | 21 | . | .
> COc1ccc(C(=O)NCc2nnc(SCCOc3ccccc3)n2C)cc1
    0.7 | -1 | -1.5 | 5.5 | i | 0.1 | -5 | 3 | 19 | -5.7

# Reprinted at random: seven records from the list.
# Order of results – E coli growth | Beta cell apopt | AF4-AF9 inh | UCH37 inh | FGF22 binding | A1 inh | Ecoli rRNA inh | T cruzi inh | Ecoli rRNA inh OD600 | Ecoli rRNA inh RFP
> OCC[C@H]1C[C@@H](O)[C@H](O)[C@@]2(Cc3ccccc3O2)O1
    . | 1 | 0.1 | 0.0 | i | -0.6 | 5 | . | 6 | 2.0
> CC(OC(=O)/C(C#N)=C/c1ccco1)C(=O)N(C)c1ccccc1 (centres undefined)
    0.72 | -6 | 2.5 | 9.7 | i | 1.1 | 9 | . | 4 | 10
> CC1CCCC(C)N1CCOc1cc(N)ccc1C#N (centres undefined)
    0.69 | . | -0.6 | 0.8 | i | . | 6 | . | 7 | -4.3
> CCN(CC)S(=O)(=O)c1ccc(C(=O)NCc2cccs2)cc1
    0.65 | 0 | . | 2.0 | . | 0.5 | . | -5 | . | .
> O=C(Nc1cccnc1)c1ccc(Br)s1
    0.69 | 18 | . | -0.5 | . | 0.4 | . | 0 | . | .
> C=C1C(=O)O[C@@H]2[C@H]3O[C@]3(C)CC/C=C(\C)CC[C@@H]12
    . | -11 | -2.4 | . | i | 0.0 | . | . | . | .
> Cc1[nH]c2ccccc2c1C(=O)C(=O)N1CCN(C)CC1
    0.72 | 0 | 0.5 | -0.2 | i | 0.4 | 12 | -18 | 5 | -0.1
